RE007 growth inh – qHTS Assay for Inhibitors of the HIV-1 protein Vpr. S. pombe RE007 Vpr strain, BacTiter-Glo ATP luminescence, 24 h; control for the full effect not named in the record. Potency, µM (top dose mostly 92.2 µM), without a hit: at the top dose activity change, negative = less growth. 360,000 tested, 0.21% active. AID 651644, 2012; active = well fitted falling curve with a large enough effect; inconclusive = small, poorly fitted or top-dose-only effect; inactive = no such curve, though single readings can be large or run the other way;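 further: on the % scale 0 is the no-effect control and ±100 the full control effect; nearly all actives have a fitted effect of over 50% in size; the assay follows cell death caused by Vpr and the record does not say whether a fall means rescue or toxicity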
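Fission yeast strain RE007, carrying one chromosomally integrated HIV-1 vpr copy, was seeded at OD 0.01 in PMG+AL medium with 23 nL pinned compound. After 24 h at 30 °C and 99% humidity, viability was read by BacTiter-Glo luminescence.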
Marburg entry inh – qHTS for inhibitors of binding or entry into cells for Marburg Virus | Potency, µM (doses to about 37.8 µM), without a hit: at the top dose activity change, negative = inhibition, actives largely listed as inhibitors | Marburg virus pseudotyped entry inhibition, cell reporter; control for the full effect not named in the record; about a third of the inactives were read at about 46 µM | 300,000 tested, 1.8% active; active = well fitted inhibition curve with a large enough effect; inconclusive = small, poorly fitted or top-dose-only effect, or effect the other way; inactive = flat fitted curve, though single readings scatter; tested in HEK293 cells; about a fifth of its hits are not listed in these tables; further: on the % scale 0 is the no-effect control and ±100 the full control effect; luciferase read-out
Cruzain inh noDet – qHTS Assay for Promiscuous and Specific Inhibitors of Cruzain (without detergent); purified cruzain, Z-FR-AMC fluorescence, no detergent; Cruzipain (Trypanosoma cruzi), P25779; Potency, µM, without a hit: max response, negative = inhibition, usual class: inhibitors; 200,000 tested, 2.3% active;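 further: plate controls were enzyme without inhibitor for no effect and buffer without enzyme for full effect; nearly all actives have a fitted effect of over 40% in size; top concentration of the series not given in the record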
Target sequence (P25779 123-467 limits assumed): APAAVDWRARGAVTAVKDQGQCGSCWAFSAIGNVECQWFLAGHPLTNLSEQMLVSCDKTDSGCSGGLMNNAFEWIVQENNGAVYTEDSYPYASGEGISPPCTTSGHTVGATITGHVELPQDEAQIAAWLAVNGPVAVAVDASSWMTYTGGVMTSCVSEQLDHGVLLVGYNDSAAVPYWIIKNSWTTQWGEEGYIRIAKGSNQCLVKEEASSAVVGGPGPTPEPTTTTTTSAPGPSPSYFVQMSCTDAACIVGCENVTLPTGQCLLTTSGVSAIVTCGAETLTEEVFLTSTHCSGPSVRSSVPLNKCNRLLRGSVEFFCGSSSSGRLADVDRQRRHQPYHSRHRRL
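Purified cruzain at 1.5 nM, pre-incubated 15 min with compound at room temperature in 100 mM sodium acetate pH 5.5, 5 mM DTT, 0.00005% Triton X-100. Reaction started with 2 uM Z-FR-AMC; AMC fluorescence increase over 60 s gives rate.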
Cruzain Triton – qHTS Assay for Promiscuous and Specific Inhibitors of Cruzain (with detergent) | 200,000 tested, 0.43% active | Cruzipain (Trypanosoma cruzi), P25779 | purified cruzain, Z-FR-AMC fluorescence, 0.01% Triton | Potency, µM, inactives show max response, negative = inhibition, usual class: inhibitors;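 further: plate controls were neutral wells for no effect and buffer without enzyme for full effect; nearly all actives have a fitted effect of over 40% in size; top concentration of the series not given in the record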
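Purified cruzain (1.5 nM final) was preincubated with compounds for 15 min at room temperature in 100 mM sodium acetate pH 5.5, 5 mM DTT, 0.01% Triton X-100. Reaction started with 2 uM Z-FR-AMC; AMC fluorescence change over 60 s gave activity.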
SARS PLP yeast – qHTS of Yeast-based Assay for SARS-CoV PLP; S. cerevisiae expressing SARS-CoV PLpro, growth rescue; control for the full effect not named in the record; Potency, µM (series often up to 32.9 µM), without a hit: at the highest dose activity, positive = growth rescue; 330,000 tested, 0.19% active; active means well fitted rising curve with a large enough effect; inconclusive means small, poorly fitted or top-dose-only effect; inactive means no such curve, though single readings can be large or run the other way; further: 0% is about no effect; nearly all actives have a fitted effect of over 55% in size; growth read by luminescence after 48 h
2A StopGo – High Throughput Screening for Foot and Mouth Disease Virus Antivirals. human cells with a luciferase reporter of 2A StopGo recoding; control for the full effect not named in the record. Potency, µM (series often up to 57.9 µM), inactives show top-dose signal change, negative = less light. 410,000 tested, 1.2% active; active = well fitted falling curve with a large enough effect; inconclusive = small, poorly fitted or top-dose-only effect; inactive = no such curve, though single readings can be large or run the other way; tested in HEK293T cells; further: on the % scale 0 is the no-effect control and ±100 the full control effect; nearly all actives have a fitted effect of over 45% in size; luciferase light after 4 h
NS1 function inh – qHTS Assay for Inhibitors of Influenza NS1 Protein Function. S. cerevisiae slowed by influenza A NS1, growth recovery by OD600. Potency, µM (series often up to 46.1 µM), for inactives: top-dose activity, positive = more growth. 270,000 tested, 0.4% active; active means well fitted rising curve with a large enough effect; inconclusive means small, poorly fitted or top-dose-only effect; inactive means no such curve, though single readings can be large or run the other way; further: nearly all actives have a fitted effect of over 50% in size
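Growth recovery, yeast-based: influenza A NS1 expressed in S. cerevisiae causes slow growth, and suppressors are detected by OD600. The parent strain without NS1 is used as positive control.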
Lassa entry inh – qHTS for Inhibitors of binding or entry into cells for Lassa Virus; Potency, µM (titrated, usually from 37.9 µM), without a hit: at the highest dose activity change, negative = inhibition, usual class: inhibitors; Lassa virus pseudotype entry inhibition, cell reporter; control for the full effect not named in the record; 300,000 tested, 1.2% active; AID 540256, 2011; active means well fitted inhibition curve with a large enough effect; inconclusive means small, poorly fitted or top-dose-only effect, or effect the other way; inactive means flat fitted curve, though single readings scatter; tested in HEK293 cells; further: on the % scale 0 is the no-effect control and ±100 the full control effect; nearly all actives have a fitted effect of over 50% in size; luciferase read-out
Active calls of the source: *; ? = inconclusive; . = no result given; [ ] = another dose, or the depositor's remark. Unless noted, the call rests on the fitted dose curve; in most records, active means well fitted curve in the direction sought with a large enough effect; inconclusive means small, poorly fitted or top-dose-only effect, or another doubt; inactive means no such curve, though single readings can be large; an effect the other way counts as inactive or inconclusive. Potency means the concentration at half of the fitted maximal effect.

SMILES	RE007 growth inh	Marburg entry inh	Cruzain inh noDet	Cruzain Triton	SARS PLP yeast	2A StopGo	NS1 function inh	Lassa entry inh
CC1CC(C)CN(CCOc2ccc(Br)cc2)C1 (configuration not stated)	?	?	-21%	-0.6%	-7%	-24%	-5%	-33%
COc1cc(NC(=S)NC(=O)c2ccc(C(C)(C)C)cc2)ccc1NC(=O)c1cccs1	0%	?	13µM*	3.3%	23%	-12%	10%	1µM*
COc1cc(OC)cc(-c2nnc(SCc3ccc(C(=O)O)cc3)o2)c1	-5%	9%	.	.	-1%	-6%	-1%	?
O=C(NC(Cc1ccccc1)C(=O)N1CCc2ccccc2C1)c1ccccc1 (configuration not stated)	0%	?	.	.	-16%	-1%	-17%	-18%[46.1 µM]
COC(=O)C1=C(NC(=O)CCCCl)CCS1	-18%	9%	-5%	-1.5%	22%	-5%	8%	3%
COc1ccc(OCCCC(=O)N(CCC2=CCCCC2)c2c(N)n(Cc3ccccc3)c(=O)[nH]c2=O)cc1	-6%	?	.	.	-1%	-5%	.	?
COc1ccc(/C=C2\SC(=O)N(CCC(=O)N3CCN(C)CC3)C2=O)cc1	-7%	.	.	.	3%	32%[activator]	0%	.
CC(NC(=O)C1CC1)C(c1cccs1)N1CCN(c2ccccc2)CC1 (configuration not stated)	-11%	.	5%	-2.3%	-4%	-5%	-8%	.
CC1=C(C(=O)OC(C)C)C(c2cccnc2)n2ncnc2N1 (configuration not stated)	-4%	0%	-1%	4.7%	-5%	-6%	-7%	.
COc1cc(OC)c2nc(C)c3c(c2c1)N(c1ccc(O)cc1)CC3	9%	?	-7%	-3.1%	2%	?	8%	?
CC(=O)c1ccc(N=Nc2ccc(N(C)C)cc2)cc1	14%	?	.	.	1%	?	.	?
CN1CCN(c2c(C#N)c(C(F)(F)F)nn2C)CC1	4%	1%[46.1 µM]	.	.	-1%	-1%	.	-6%
CC(NC(=O)CNC(=O)C1CCCCC1)c1cccc(Cl)c1 (configuration not stated)	12%	-17%[46.1 µM]	.	.	5%	48%[activator]	4%	1%
CCC(=O)Nc1cc(C(=O)OCC(=O)c2ccccc2Cl)ccc1C	-7%[3.69 µM]	21%	-3%	2.4%	-1%	-22%	11%	8%
Cc1ccc(S(=O)(=O)Nc2ccc(Cl)cc2)cc1NC(=O)c1cc2c(s1)CCCC2	-5%	?	?	-2.3%	-11%	0%	16%	-29%
Cn1c(C(=O)N2CCN(c3ncccn3)CC2)cc2c(=O)n(C)c3ccccc3c21	-8%	0%	-11%	-5.0%	8%	-23%	-23%	.
N#Cc1nc(-c2ccc(Cl)cc2)oc1NCc1ccco1	4%	2%	0%	?	2%	39%[activator]	-15%	27%
COc1cccc(C(=O)Nc2c(C)nn(-c3ccccc3)c2C)c1	14%	7%[46.1 µM]	.	.	0%	2%	-1%	-14%
O=C(NCC(O)c1ccccc1)c1ccc(Cl)c(S(=O)(=O)N2CCCC2)c1 (configuration not stated)	0%	-33%	.	.	-1%	-10%	.	3%
COc1cc(S(=O)(=O)N2CCC(c3nc4ccccc4s3)CC2)ccc1S(=O)(=O)N1CC(C)CC(C)C1 (configuration not stated)	-15%	5%	4µM*	4.0%	11%	.	10%	-9%
CCOC(=O)C(C)Oc1cccc2c(=O)n(CC(=O)NCc3ccccc3)ccc12 (configuration not stated)	9%	?	.	.	2%	-24%	-7%	?
Oc1ccc(C=NNc2nc3ccccc3s2)c(O)c1	1%	?	.	.	.	13%	.	?
CC(C)CC(N=Cc1c(O)c2ccccc2oc1=O)C(=O)O (configuration not stated)	-1%	-12%[46.1 µM]	.	.	-3%	7%	.	-14%[46.1 µM]
COc1ccc(-c2nnc(SCC(=O)N3CCOCC3)n2C)cc1OC	-4%	13%	1%	-0.3%	0%	2%	-2%	-24%
CCC1CCCCN1CCNC(=O)CCS(=O)(=O)c1ccc(Br)cc1 (configuration not stated)	-9%	-26%	-8%	-0.2%	3%	-15%	16%	4%

In the list so far, 2 have a cyano group.
SMILES	RE007 growth inh	Marburg entry inh	Cruzain inh noDet	Cruzain Triton	SARS PLP yeast	2A StopGo	NS1 function inh	Lassa entry inh
CN1CCN(c2c(C#N)c(C(F)(F)F)nn2C)CC1	4%	1%[46.1 µM]	.	.	-1%	-1%	.	-6%
N#Cc1nc(-c2ccc(Cl)cc2)oc1NCc1ccco1	4%	2%	0%	?	2%	39%[activator]	-15%	27%

(list continues)
SMILES	RE007 growth inh	Marburg entry inh	Cruzain inh noDet	Cruzain Triton	SARS PLP yeast	2A StopGo	NS1 function inh	Lassa entry inh
O=C(N/N=C/c1cccnc1)C(O)c1ccccc1 (configuration not stated)	1%	32%	8%	2.2%	-12%	25%	-1%	-10%
Cc1ccc(C(=O)NNC(=O)C2CC2)cc1Br	20%	19%[46.1 µM]	.	.	-9%	-14%	-6%	?
Cc1ccc(/C(N)=N/OC(=O)c2ccc(C)cc2Cl)cc1	?	?	-5%	-1.9%	-86%	?	-70%	?
Cc1cccc(OS(=O)(=O)NC(=O)OCC2CCCN3CCCCC23)c1 (configuration not stated)	9%	-20%[46.1 µM]	.	.	-2%	32µM*	.	0%
CCCCN(CC)C(=O)Cn1nc(C)c2c(C)n(-c3ccccc3)nc2c1=O	.	.	6%	-3.5%	.	-13%	.	10%[46.1 µM]
Cc1ccc(C)c(CNC(=O)c2ccc3c(c2)nc2n3CCOC2)c1	.	.	-3%	1.5%	.	-6%	.	?
CCc1ccc(NC(=O)CC2C(=O)N(c3ccccc3)C(=O)N2C(C)C)cc1 (configuration not stated)	.	.	6%	-3.1%	.	32%[activator]	.	-3%[46.1 µM]
CCOc1ccc(C(=O)Nc2ccc(CN3CCOCC3)cc2)cc1Br	-21%	-1%	.	.	-7%	-8%	-44%	3%
Cc1cc(/C=N/NC(N)=O)c(C)c(CO)c1	-7%	2%	-3%	1.3%	1%	-15%	8%	16%
Oc1ccc2ccccc2c1N=Nc1nccs1	?	3.5µM*	.	.	-7%	?	-113%	?
O=C(COc1ccc(-n2cnnn2)cc1)Nc1cc(Cl)cc(Cl)c1	-16%	?	.	.	0%	?	.	?
CCN(CC)S(=O)(=O)c1ccc(N2CCOCC2)c(NS(=O)(=O)c2cc(C(C)(C)C)ccc2C)c1	-22%	?	?	-7.6%	-3%	-8%	?	8.9µM*
CC(NC(=O)c1ccc(=O)oc1)c1ccccc1 (configuration not stated)	1%	1%	-12%	-7.6%	-2%	-22%	-4%	-12%
CCOC(=O)c1sc(=S)n(-c2ccc(C)cc2)c1N	3%	?	.	.	-2%	-2%	.	26%[46.1 µM]
COc1ccc(S(=O)(=O)N(CC(=O)Nc2cccc(C)c2)c2ccc(C)cc2)cc1OC	.	.	28%	-5.0%	.	-15%	.	-15%[46.1 µM]
CC(C)CNC(=S)NNC(=O)c1csc2ccccc12	12%	2%	4%	3.9%	12%	43%[activator]	-17%	28%[14.3 µM]
CCc1nc2c(c(SC)nn2-c2ccccc2)c(N)c1C(=O)OC	-3%	-4%	-1%	-2.4%	0%	-10%	-12%	-5%
COc1ccc(N2CCN(CCOc3ccc4c(C)cc(=O)oc4c3)CC2)cc1	-3%	?	-9%	-4.9%	-6%	-13%	-6%	-17%
COc1ccc(C)cc1NC(=O)C(OC(=O)Cn1cnc2c1c(=O)n(C)c(=O)n2C)c1ccccc1 (configuration not stated)	2%	-16%	.	.	2%	-19%	.	4%
Cc1ccc(S(=O)(=O)N2CCOCC2)cc1NC(=O)COC(=O)c1cnc(Cl)c(Cl)c1	-22%	-22%	.	.	1%	-3%	.	?
Nc1nc(Nc2ccc(Cl)cc2)nc(NCCO)c1[N+](=O)[O-]	0%	?	.	.	-3%	-3%	-2%	-6%
O=C(CCCCl)NC(=S)Nc1cc(C(F)(F)F)ccc1N1CCOCC1	1%	?	-12%	-8.2%	-11%	7%	13%	?
Cc1ccc(C2CC(=O)n3nc(-c4ccc(Cl)cc4)nc3S2)cc1 (configuration not stated)	.	1%[46.1 µM]	-11%	-5.6%	.	-12%	.	6%[46.1 µM]
CCn1c(Cc2ccccc2)nnc1SCC(=O)Nc1ccccc1O	-4%	-10%	.	.	1%	68%[activator]	.	?
CCCCc1cc(=O)oc2cc(C)cc(OCC(=O)N3C[C@H]4C[C@@H](C3)c3cccc(=O)n3C4)c12	3%	.	.	.	-4%	-15%	-12%	.

More compounds
SMILES	RE007 growth inh	Marburg entry inh	Cruzain inh noDet	Cruzain Triton	SARS PLP yeast	2A StopGo	NS1 function inh	Lassa entry inh
COc1cc2c(cc1OC)C(=S)NC1(CCCC1)C2	8%	0%[46.1 µM]	.	.	7%	-9%	.	-20%
Cc1ccc(N2C(=O)CC(NNC(=O)c3cccc(S(=O)(=O)N4CCCC4)c3)C2=O)cc1 (configuration not stated)	-20%	?	-7%	2.0%	11%	-13%	8%	?
Cc1cccc(-n2c(CNC(=O)c3cccc([N+](=O)[O-])c3C)n[nH]c2=S)c1	-8%	?	.	.	-2%	-12%	.	14%[46.1 µM]
Cc1cccc(-c2cccc(NC(=O)C3CCCN(C(=O)c4csc(C)n4)C3)c2)c1 (configuration not stated)	15%	.	.	.	-29%	-12%	3%	.
CN(C)c1ccc(/C=N/NC(=O)C(O)(c2ccccc2)c2ccccc2)o1	3%	15%	?	-1.3%	-2%	-9%	-6%	-7%
O=C(CSc1nc2ccc(NC(=O)c3ccccc3C(=O)O)cc2s1)Nc1ccc(F)c([N+](=O)[O-])c1	1%	?	.	.	-3%	12%	-16%	?
COC(C(=O)Nc1ccnn1C1CCN(Cc2cnn(C)c2)CC1)c1ccccc1 (configuration not stated)	-4%	8%	.	.	-1%	2%	13%	20%
CN(CCc1ccccn1)C(=O)CC1C(=O)NCCN1Cc1ccc(-c2ccccc2)cc1 (configuration not stated)	?	-19%[46.1 µM]	.	.	-3%	5%	-2%	-21%
COC(=O)c1cc(S(=O)(=O)N2c3ccccc3CC2C)c[nH]1 (configuration not stated)	12%	.	.	.	3%	5%	0%	.

Assay outcomes: PubChem, National Center for Advancing Translational Sciences (NCATS)
